# NS1 function inh: blocks influenza NS1 protein function; 270,000 compounds, 0.4% hits; Potency, µM (series often up to 46.1 µM), for the others: at the highest dose activity, positive = more growth; S. cerevisiae slowed by influenza A NS1, growth recovery by OD600; AID 2326; also: actives are rising curves; nearly all actives have a fitted effect of over 50% in size
#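 S. cerevisiae expressing influenza A NS1, grown in glucose, washed, then diluted 1:100 into pH 6.0 -URA galactose medium with 23 nl compound. Growth recovery read as OD600; NS1-free strain serves as control.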
# 2A StopGo: FMDV 2A StopGo reporter, luciferase signal; Potency, µM (series often up to 57.9 µM), inactives show at the highest dose signal change, negative = less light; human cells with a luciferase reporter of 2A StopGo recoding; control for the full effect not named in the record; 410,000 compounds, 1.2% hits; active = well fitted falling curve with a large enough effect; inconclusive = small, poorly fitted or top-dose-only effect; inactive = no such curve, though single readings can be large or run the other way; tested in HEK293T cells; also: % is scaled to controls: 0 for no effect and ±100 for the full control effect; nearly all actives have a fitted effect of over 45% in size; luciferase light after 4 h
# Cruzain Triton: cruzain (T. cruzi) inhibition with detergent; P25779; Potency, µM, without a hit: max response, negative = inhibition, usual class: inhibitors; purified cruzain, Z-FR-AMC fluorescence, 0.01% Triton; 200,000 compounds, 0.43% hits; active = well fitted curve in the direction sought with a large enough effect; inconclusive = small, poorly fitted or top-dose-only effect, or another doubt; inactive = no such curve, though single readings can be large; an effect the other way counts as inactive or inconclusive;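 also: plate controls were neutral wells for no effect and buffer without enzyme for full effect; nearly all actives have a fitted effect of over 40% in size; top concentration of the series not given in the record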
# Target sequence (P25779 123-467 limits assumed): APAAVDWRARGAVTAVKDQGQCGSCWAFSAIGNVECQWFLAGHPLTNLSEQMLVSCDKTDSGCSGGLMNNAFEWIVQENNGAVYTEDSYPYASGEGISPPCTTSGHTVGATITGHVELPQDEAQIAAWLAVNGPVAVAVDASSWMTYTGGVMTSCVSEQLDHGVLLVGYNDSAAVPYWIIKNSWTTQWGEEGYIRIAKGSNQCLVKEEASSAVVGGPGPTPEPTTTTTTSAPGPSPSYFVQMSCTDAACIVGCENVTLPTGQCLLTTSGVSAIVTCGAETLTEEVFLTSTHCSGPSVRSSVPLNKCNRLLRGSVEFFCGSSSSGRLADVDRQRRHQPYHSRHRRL
#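 Cruzain (1.5 nM) preincubated 15 min at RT with compound in 100 mM sodium acetate pH 5.5, 5 mM DTT, 0.01% Triton X-100. Reaction started with 2 uM Z-FR-AMC; AMC fluorescence (ex 360/em 450 nm) change over 60 s gave rate.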
# RE007 growth inh: less growth of the S. pombe RE007 Vpr strain; Potency, µM (doses to about 92.2 µM), for the others: top-dose activity change, negative = less growth; 360,000 compounds, 0.21% hits; S. pombe RE007 Vpr strain, BacTiter-Glo ATP luminescence, 24 h; control for the full effect not named in the record; AID 651644; active = well fitted falling curve with a large enough effect; inconclusive = small, poorly fitted or top-dose-only effect; inactive = no such curve, though single readings can be large or run the other way;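 also: % is scaled to controls: 0 for no effect and ±100 for the full control effect; nearly all actives have a fitted effect of over 50% in size; the assay follows cell death caused by Vpr and the record does not say whether a fall means rescue or toxicity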
#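 Fission yeast RE007 carrying one integrated HIV-1 vpr copy, seeded at OD 0.01 in PMG+AL medium with 23 nL pinned compound. Grown 24 h at 30 degrees; viability read by BacTiter-Glo luminescence after 5 min.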
# SARS PLpro yeast: inhibitors of SARS-CoV papain-like protease in yeast; S. cerevisiae expressing SARS-CoV PLpro, growth rescue; control for the full effect not named in the record; Potency, µM (doses to about 32.9 µM), inactives show at the highest dose activity, positive = growth rescue; 330,000 compounds, 0.19% hits; AID 485353; also: 0% is about no effect; nearly all actives have a fitted effect of over 55% in size; growth read by luminescence after 48 h
# Cruzain noTriton: inhibitors of Trypanosoma cruzi cruzain without detergent | P25779 | purified cruzain, Z-FR-AMC fluorescence, no detergent | Potency, µM, inactives show max response, negative = inhibition, actives largely listed as inhibitors | 200,000 compounds, 2.3% hits | AID 1476; active = well fitted curve in the direction sought with a large enough effect; inconclusive = small, poorly fitted or top-dose-only effect, or another doubt; inactive = no such curve, though single readings can be large; an effect the other way counts as inactive or inconclusive;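 also: plate controls were enzyme without inhibitor for no effect and buffer without enzyme for full effect; nearly all actives have a fitted effect of over 40% in size; top concentration of the series not given in the record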
#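 Detergent-free condition (0.00005% Triton X-100) in acetate buffer pH 5.5 with DTT. 1.5 nM enzyme and compound were pre-mixed 15 min, then 2 uM Z-FR-AMC substrate added; reaction progress from fluorescence change between first and third reads (60 s).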
# Marburg entry inh: inhibitors of Marburg virus binding or cell entry; Marburg virus pseudotyped entry inhibition, cell reporter; control for the full effect not named in the record; about a third of the inactives were read at about 46 µM; Potency, µM (titrated, usually from 37.8 µM), inactives show at the top dose activity change, negative = inhibition, actives largely listed as inhibitors; 300,000 compounds, 1.8% hits; AID 540276; active = well fitted inhibition curve with a large enough effect; inconclusive = small, poorly fitted or top-dose-only effect, or effect the other way; inactive = flat fitted curve, though single readings scatter; tested in HEK293 cells; about a fifth of its hits are not listed in these tables; also: % is scaled to controls: 0 for no effect and ±100 for the full control effect; luciferase read-out
# LASV entry inh: Lassa virus entry inhibition | Lassa virus pseudotype entry inhibition, cell reporter; control for the full effect not named in the record | Potency, µM (top dose mostly 37.9 µM), without a hit: at the highest dose activity change, negative = inhibition, most hits filed as inhibitors | 300,000 compounds, 1.2% hits | AID 540256; active means well fitted inhibition curve with a large enough effect; inconclusive means small, poorly fitted or top-dose-only effect, or effect the other way; inactive means flat fitted curve, though single readings scatter; tested in HEK293 cells; also: % is scaled to controls: 0 for no effect and ±100 for the full control effect; nearly all actives have a fitted effect of over 50% in size; luciferase read-out
# * marks the source's active call; other numbers are inactive results; u = inconclusive; x = not tested or not shown; & = joins results of further samples; [ ] = dose if it differs, or a comment. Unless noted, calls follow the shape of the dose curve; as a rule, active means well fitted rising curve with a large enough effect; inconclusive means small, poorly fitted or top-dose-only effect; inactive means no such curve, though single readings can be large or run the other way. Potency is read from the fitted curve at half-maximal effect.
compound	NS1 function inh	2A StopGo	Cruzain Triton	RE007 growth inh	SARS PLpro yeast	Cruzain noTriton	Marburg entry inh	LASV entry inh
COc1ccc(OC)c(C2C(C(=O)c3ccc(C)o3)=C(O)C(=O)N2CCCN2CCOCC2)c1 (stereo not drawn)	-7.3%	-12.6%	x	u	x	x	-1.7%[46.1 µM]	0.2%
CCOC(=O)C1=C(C)NC(SCC(N)=O)=C(C#N)C1c1ccccc1 (stereo not drawn)	-9.5%	0.1%	2.4%	11.7%	0.0%	3.7%	u	-16.7%
Cc1ccc(Cl)cc1Nc1nn2c(=O)c3ccc(C(=O)NCc4cccs4)cc3nc2s1	x	u	0.2%	x	x	3.6%	x	-27.3%[46.1 µM]
Cc1cnc(Nc2nc3ccccc3o2)nc1C(=O)Nc1cccc(C(F)(F)F)c1	-40.4%	3.3%	-2.4%	17.6%	-3.7%	-6.3%	-21.5%	0.4%
O=C(COc1ccc(Br)cc1)NCCCNC(=O)c1cccnc1	1.3%	-14.9%	x	16.5%	5.1%	x	-3.7%[46.1 µM]	4.3%[46.1 µM]
O=C(COC(=O)C1CC1)NC(=O)c1ccccc1	x	18.1%	x	14.3%	-6.9%	x	u	-1.6%
COc1ccc(C)cc1NC(=O)c1cc2c(=O)n3ccccc3nc2n1C	12.1%	6.6%	x	-3.1%	-0.8%	x	21.4%[46.1 µM]	-1.6%
O=C(CCC1CCCCC1)NCCN1C2=NC[C@H](Cc3ccccc3)N2C[C@H]1Cc1ccc(O)cc1	9.0%	-8.5%	x	-5.2%	0.8%	x	x	x
CCN(CC)c1ccc(NC(=O)c2ccccn2)cc1S(=O)(=O)Nc1ccccc1OC	x	34.7%[activator]	x	-12.7%	0.3%	x	-6.1%	-29.2%
COc1ccc(/C=C/C2=NN(C)C(=O)CC2)cc1	x	2.2%	x	-20.9%	-8.1%	x	u	u
COc1cccc(N2CCN(C3CC(=O)N(c4ccc(Cl)cc4)C3=O)CC2)c1 (stereo not drawn)	0.1%	-21.3%	-1.1%	u	-22.8%	22.0%	-25.3%	-0.2%
CC(C)n1c(SCC(=O)NC2CC2)nnc1C1CC1	7.3%	-6.2%	x	10.1%	-6.4%	x	6.8%[46.1 µM]	4.7%[46.1 µM]
O=S(=O)(/N=C(/c1ccccc1)N1CCCCCC1)c1ccccc1	2.3%	25.3%	x	5.1%	1.7%	x	u	0.3%
COc1ccc(C)cc1C1=Nc2ccccc2C1(C)C	-14.9%	-22.6%	-3.5%	x	10.1%	-3.1%	20.5%	10.5%
COc1ccc(NC(=O)/C(C#N)=C/c2ccc(-c3ccc(Cl)c(C(=O)O)c3)o2)cc1	13.3%	15.0%	x	11.4%	1.6%	x	x	x
CCOc1ccc(NC(=O)c2ccc3c(c2)C(=O)N(Cc2ccncc2)C3=O)cc1	x	u	x	-8.9%	2.8%	x	-23.0%[46.1 µM]	13.3%
O=C(COC(=O)c1cc(-c2cccs2)nc2ccccc12)c1ccc(Cl)cc1	x	49.6%[activator]	1.1%	x	x	u	10.8%[46.1 µM]	6.9%[46.1 µM]
O=C(Cc1ccccc1)Nc1cccc(NC(=O)c2ccccc2)c1	7.2%	72.5%[activator]	x	4.7%	4.4%	x	-16.3%	-29.8%
Cn1c(-c2ccccc2)nc2cnccc21	-1.8%	-2.4%	x	0.8%	1.6%	x	x	x
Clc1ccc(Cl)c(OCCN2CCOCC2)c1	0.1%	4.4%	-3.1%	0.1%	7.7%	2.3%	16.8%	5.8%
COc1ccccc1N1CCN(C(=O)C2CCC(CNS(=O)(=O)c3ccc(NC(C)=O)cc3)CC2)CC1 (stereo not drawn)	-6.4%	-17.7%	x	8.2%	0.3%	x	x	x
CCCN(Cc1ccccc1)C(=S)Nc1cccc(C)c1C	6.3%	-13.0%	x	9.4%	1.0%	x	-8.6%[46.1 µM]	x
Cc1ccc(CNC(=O)C(=O)Nc2c3c(nn2-c2ccc(F)cc2)CSC3)cc1	x	-14.9%	-1.2%	x	x	12.6µM*	x	27.4%[46.1 µM]
COC(=O)c1ccc(CNC(=O)COc2ccccc2Br)o1	6.1%	-21.4%	-1.9%	-2.4%	-0.1%	-4.4%	1.3%	-18.7%
CCN(CC)CCCNC(=S)N(CCCO)Cc1cc2cc3c(cc2[nH]c1=O)OCO3	15.3%	-13.9%	x	-8.1%	-0.5%	x	x	x
COc1ccc(NC(=O)COC(=O)C2CCN(C(=O)c3ccc(Cl)cc3)CC2)c([N+](=O)[O-])c1	x	11.6%	x	-14.1%	-16.5%	x	u	-12.5%[46.1 µM]
CCn1cnc2cc(NS(=O)(=O)c3ccc(C)cc3)ccc21	18.4%	-8.8%	0.3%	-6.2%	4.4%	20.0%	-8.7%	-3.9%
O=C(Cn1cc[n+](CC(=O)c2ccc(Cl)cc2Cl)c1)c1ccc(Cl)cc1Cl	9.7%	u	x	-8.0%	0.3%	x	x	x
O=C(Nc1ccccc1C(=O)N1CCCC1)C1CCN(c2ncccn2)CC1	-3.5%	-3.2%	-0.7%	16.3%	-0.6%	10.7%	12.7%	-0.1%
COC(=O)CCSC(=S)N1CCOCC1	1.0%	18.2%	x	2.1%	0.6%	x	9.9%[14.2 µM]	17.4%
Cc1cc(C(=O)N/N=C2\CCCC(=O)C2)c(C)n1-c1ccccc1	5.2%	47.0%[activator]	1.3%	17.9%	12.2%	5.8%	u	u
O=C(c1ccccc1)c1nn(-c2ccccc2)c2nnc(Cc3ccccc3)c(=O)n12	2.1%	-28.9%	-2.8%	15.2%	8.7%	25.1µM*	u	-17.3%
CCN(CC)C(=O)c1cc(-c2ccc(Br)cc2)on1	0.9%	0.0%	-1.2%	-6.4%	-3.0%	-4.6%	u	-9.7%
COc1ccc(CN(C(=O)COc2ccccc2)c2ccccc2C(=O)O)cc1	-0.2%	-6.8%	x	1.0%	-0.1%	x	x	x
CCC(CC)C(=O)Nc1cc(-c2cn3cccnc3n2)ccc1OC	x	-7.1%	1.5%	x	x	2.1%	x	9.0%[46.1 µM]
O=C(N/N=C/c1ccco1)C1(O)c2ccccc2-c2ccccc21	-52.8%	-27.4%	x	-14.4%	0.7%	x	x	x
COc1ccc2occ(C(=O)c3ccc(N=C(C)N(C)C)cc3)c2c1	-12.5%	-19.0%	0.8%	-27.1%	x	-3.6%	u	u
CCOC(=O)N1CCC(N2Cc3cccc(C(=O)N4CC(C)CC(C)C4)c3C2=O)CC1 (stereo not drawn)	-10.1%	-20.9%	-0.8%	3.4%	9.2%	3.1%	12.1%&-4.5%	-0.1%&-3.9%
CC(=O)Nc1cc(C(F)(F)F)ccc1OCC1CCCO1 (stereo not drawn)	-6.9%	-14.8%	8.3%	-1.8%	7.9%	7.7%	u	14.0%
Cc1cc(-c2nc3ncccc3o2)ccc1NC(=S)NC(=O)C(C)C	3.5%	0.2%	x	-9.6%	-0.4%	x	-0.7%[46.1 µM]	6.6%
Cn1c(=O)[nH]c(=O)c2c1nc(N1CCCCC1)n2C/C=N/Nc1ccc(C(=O)O)cc1	0.9%	u	x	4.9%	1.1%	x	x	x
COC(=O)CCN(C(=O)c1cccc(OC(C)=O)c1)c1ccccn1	-10.4%	-3.5%	0.5%	2.3%	-0.3%	-4.6%	u	4.0%
COc1ccc(N2CCN(S(=O)(=O)c3ccc4c(c3)OCCO4)CC2)cc1	-1.8%	-9.2%	x	5.2%	-0.7%	x	-16.8%[46.1 µM]	-13.1%
COc1ccc2[nH]c3c(c2c1)CCN1C(=O)C(CC(=O)NC/C=C(\C)CCC=C(C)C)C[C@H](C(=O)N2CCOCC2)[C@@]31CCC1CCCC1 (stereo partly drawn)	x	-6.7%	x	7.6%	27.1%	x	-3.5%	x
O=C(CCC(=O)Nc1ccc(F)cc1)N/N=C/c1cccc(Br)c1	-4.8%	-18.5%	x	8.2%	0.4%	x	u	u
CC(C)(C)c1ccc(N2C(=N)SCC2=O)cc1	8.1%	-4.4%	x	27.4%	-8.7%	x	u	-11.0%
COc1ccc(S(=O)(=O)N(C(C)=O)c2ccc3oc(=O)sc3c2)cc1	u	11.3%	-12.4%	-0.7%	4.3%	-16.6%	-28.8%	9.7%
CCOC(=O)N1CCC(NC(=O)c2cc3c(=O)n(C)c4ccccc4c3n2C)CC1	2.1%	u	-3.6%	-2.1%	12.9%	u	-28.2%	1.6%
Cc1c(C)c2c(cc(C)c3c(-c4ccc(Br)cc4)coc32)oc1=O	x	-6.1%	-1.9%	x	x	-10.6%	-21.6%[46.1 µM]	15.0%[46.1 µM]
COc1ccc(-c2noc(N3CCC(C(=O)NCCCN4CC(C)CC(C)C4)CC3)n2)cc1 (stereo not drawn)	-3.1%	-15.3%	x	-7.5%	27.0%	x	x	x

# Additional structures follow.
compound	NS1 function inh	2A StopGo	Cruzain Triton	RE007 growth inh	SARS PLpro yeast	Cruzain noTriton	Marburg entry inh	LASV entry inh
C/C(=N/OC(=O)c1ccc(C)cc1)c1ccc(N2C(=O)C3CCCCC3C2=O)cc1 (stereo not drawn)	-12.5%	u	-5.0%	2.9%	8.9%	12.1%	3.0%[46.1 µM]	-5.4%
CCC[N+]1(CC#CCC(c2ccccc2)c2ccccc2)CCCCC1	-4.8%	u	x	-6.7%	-1.5%	x	u	u
CCCCNC(=O)Nc1ccon1	-2.4%	-13.8%	2.9%	1.2%	-0.7%	3.9%	-1.0%	18.0%
N#Cc1ccccc1Sc1ccccc1C(=O)OCC(=O)NC1CCCCC1	8.8%	9.2%	-0.6%	3.8%	12.4%	-22.3%	u	3.1%
CSC1=NCCN1C(=O)Cc1cccc2ccccc12	-1.9%	-6.7%	x	1.4%	-2.6%	x	u	9.3%[46.1 µM]
NNc1ccc(Cl)c(C(=O)O)c1	6.7%	11.9%	x	7.6%	1.0%	x	x	x
CC(C)(C)c1ccc(C(=O)N2CCC(C(=O)NC3CCCCCC3)CC2)cc1	11.3%	30.2%[activator]	x	-0.1%	0.2%	x	u	-16.3%[46.1 µM]

# Screens (PubChem)
